Source: PubChem
eIF4H FP inh = inhibitors of RNA binding by human eIF4H; inhibition, % at 35 µM; eIF4H fluorescence polarization binding assay; AID 2012; hit rate 0.94% among 290,000; Q15056;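 active = 50% or more with normal probe brightness, or confirmed in later tests; inconclusive = above 50% with abnormal brightness, or retests that disagree; inactive = below 50% or failed in later tests; about a fifth of its hits are not listed in these tables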;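 note: calls also rest on retests at 20 µM and on dose response follow-up; 0% = protein and probe with vehicle and 100% = probe without protein; strong numbers were not always called active; many hits fall short of the cut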
HIV Env fusion = inhibitors of HIV Env-mediated cell fusion; inhibition, % at 12.3 µM; HeLa-JRFL Env/CEM21 cell fusion, luciferase; hit rate 1.1% among 360,000; AID 651610;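 active = mean replicate inhibition score of at least 50 and every replicate individually at or above 50; inconclusive = only one of the two criteria met; inactive = mean below 50 and not all replicates reaching 50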;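 note: 0% = plate neutral controls and 100% = maraviroc near 300 nM; one replicate is shown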
Rce1 inhib = blocks yeast Ras-converting enzyme; yeast membranes, quenched prenylated peptide cleavage fluorescence; AID 2563; calls only; hit rate 0.27% among 290,000;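 active = fall in fluorescence gain of 50% or more versus controls, with final raw signal at or below 3038400; inconclusive = same 50% fall but final raw signal above 3038400; inactive = fall in fluorescence gain under 50%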;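 note: plate controls were neutral control wells for no effect and wells lacking membranes for full effect; tested at 10 µM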
MT1-MMP act inh = blocks activation of human MT1-MMP | P50281 | HT1080 RFP-PRO-GFP cells, GFP/RFP ratio fluorescence, overnight; percent of plate control window, DMSO zero | GFP/RFP ratio change, % at 20 µM | hit rate 0.061% among 360,000 | AID 651647;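 active = GFP/RFP ratio change of at least 30% with cell ATP level not reduced by more than half and red fluorescence within 50% of control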; note: strong numbers were not always called active
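Assay system – RFP-PRO-GFP reporter HT1080 cells · Compound dosing – single dose of 20 µM compound, 1% DMSO final · Incubation – overnight compound exposure at 37 °C · Measure – GFP/RFP fluorescence ratio · Benchmarks – DMSO wells and RFP-L50D-GFP cells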
CSC inhib = blocks cancer stem cells | hit rate 1.1% among 300,000 | cancer stem cell-like cells viability, luminescence | inhibition, % at 7.5 µM;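 active = mean at 75% or more and at least half the replicates too; inconclusive = mean and replicates disagree; tested in HMLE shEcad cells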;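 note: 0% = median of negative and 100% = median of positive control wells; the first replicate is given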
Yeast UUG start = modulators of start codon recognition fidelity in yeast | S. cerevisiae UUG-firefly luciferase reporter, luminescence/redox ratio | activity score, % at 18.7 µM | hit rate 0.13% among 350,000 | AID 602363;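 active = replicate mean at a twofold rise or more, about +100% in these data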;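 note: firefly luciferase made from a UUG start codon reports start codon fidelity; reporter light over untreated wells divided by growth signal over untreated wells; some hits fall short of that in this replicate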
PABP polyA inh = blocks human PABP binding to poly(A) RNA. fluorescence polarization. hit rate 1% among 290,000. AID 2014. inhibition, % at 35 µM;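 active = 50% or more with normal probe brightness, or confirmed in later tests; inconclusive = above 50% with abnormal brightness, or retests that disagree; inactive = below 50% or failed in later tests; about a fifth of its hits are not listed in these tables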;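 note: calls also rest on retests at 20 µM and on dose response follow-up; controls were probe without protein and protein plus probe with vehicle; some compounds called inactive have numbers as strong as hits; many hits fall short of the cut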
Target sequence (P11940 whole entry, looked up): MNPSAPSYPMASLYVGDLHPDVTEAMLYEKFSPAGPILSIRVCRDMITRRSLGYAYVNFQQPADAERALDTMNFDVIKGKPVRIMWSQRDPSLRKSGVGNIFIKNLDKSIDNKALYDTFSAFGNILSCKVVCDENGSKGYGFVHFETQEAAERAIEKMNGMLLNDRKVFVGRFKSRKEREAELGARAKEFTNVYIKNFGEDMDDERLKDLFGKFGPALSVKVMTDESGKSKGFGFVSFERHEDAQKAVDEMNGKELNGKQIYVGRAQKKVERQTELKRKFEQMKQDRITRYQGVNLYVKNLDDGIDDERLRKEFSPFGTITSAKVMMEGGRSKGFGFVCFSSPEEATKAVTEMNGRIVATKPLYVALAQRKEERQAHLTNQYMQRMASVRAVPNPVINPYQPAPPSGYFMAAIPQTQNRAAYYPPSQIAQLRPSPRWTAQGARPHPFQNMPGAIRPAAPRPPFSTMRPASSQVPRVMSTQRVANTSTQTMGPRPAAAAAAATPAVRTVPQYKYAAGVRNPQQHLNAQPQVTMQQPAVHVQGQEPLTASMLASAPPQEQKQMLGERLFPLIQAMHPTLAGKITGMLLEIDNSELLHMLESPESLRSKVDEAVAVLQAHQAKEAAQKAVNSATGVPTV
MT1-MMP act inh RFP = also measured in MT1-MMP act inh; calls as there; RFP signal change, %; measured here: RFP expression control read;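 0 = vehicle wells; hits needed this value within 50% of zero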
* hit, by the source's call; i = inactive; ? = inconclusive; nt = no result given.

SMILES	eIF4H FP inh	HIV Env fusion	Rce1 inhib	MT1-MMP act inh	MT1-MMP act inh RFP	CSC inhib	Yeast UUG start	PABP polyA inh
O=c1c([N+](=O)[O-])c(N2CCOCC2)c2ccccc2n1-c1ccccc1	-3.0	9.1	i	-1.0	3.2	-4.9	nt	-1.0
O=C(O)CSC1c2ccccc2C(=O)N1Cc1ccccc1 (centres undefined)	2.8	nt	i	1.2	2.6	-6.8	-8.5	5.8
COC(=O)C(Cc1ccccc1)NC(=O)CNC(=O)c1ccccc1OC (centres undefined)	-13.5	-2.5	i	1.1	2.6	7.3	-7.5	-1.9
CCOc1ccc2ccccc2c1/C=N/n1cncn1	-8.1	-101.1	i	11.3	1.6	3.5	-26.2	-4.2
Cc1csc(NC(=O)c2nc3nc(C)cc(C)n3n2)n1	3.9	nt	i	5.1	0.9	2.8	-32.7	5.0
O=C(Nc1ccc(-c2nc3ccccc3[nH]2)cc1)c1ccco1	-1.9	nt	i	10.8	-0.5	20.0	-25.0	7.4
COc1ccc(NC(=O)c2cc3c(Cl)nc4ccccc4c3s2)cc1OC	3.3	nt	i	0.2	2.9	49.5	-9.8	-0.2
CC(=NNC(=O)c1cccc(S(=O)(=O)N2CCOCC2)c1)c1ccc(Cl)cc1	nt	-5.1	nt	4.5	-5.2	-13.5	nt	nt
O=C(NCc1ccco1)c1nn(-c2ccccc2)c(=O)c2ccccc12	0.9	-67.8	i	-0.2	-2.2	0.1	-22.9	9.5
COc1ccc(S(=O)(=O)N(CCCN2CCCC2=O)Cc2cc3cc(C)c(C)cc3[nH]c2=O)cc1	-1.2	nt	i	-0.7	-5.0	nt	-4.3	-5.0
CCCCN(C(=O)c1cc2c(s1)CCCCC2)c1c(N)n(CC(C)C)c(=O)[nH]c1=O	nt	14.7	nt	-3.6	0.0	nt	-17.5	nt
CCn1c(SCC(=O)NC2CCCC2)nnc1-c1ccoc1C	-5.1	-2.3	nt	2.7	4.1	5.4	-10.4	-1.2
Cc1cc(C)n(-c2nc3ccccc3nc2N2CCN(C(=O)c3ccc(F)cc3)CC2)n1	-3.8	nt	i	4.8	-1.7	5.8	6.3	-12.9
CC(=O)c1ccc(S(=O)(=O)N2CCNC(=O)C2)cc1	nt	-4.2	nt	-8.0	-2.0	-2.3	-18.9	nt
N#Cc1c2n(c3c(=O)n(Cc4ccccc4)cnc13)CCCC2	0.8	nt	i	0.4	1.0	-3.5	-9.4	4.8
CCCc1ccc(OCC(=O)O)cc1	-3.6	nt	i	-5.5	-2.2	8.3	-10.9	-8.2
O=c1c(Cl)c(N/N=C/c2ccc(Cl)cc2)cnn1-c1ccccc1	-14.2	-29.4	i	-4.3	-1.8	13.4	nt	7.4
Cc1nc(-c2ccc3c(c2)OCO3)cs1	2.2	-74.1	i	1.8	-6.5	-6.1	-3.6	10.4
COC(=O)CSc1nccc(-c2cccs2)n1	1.3	-35.6	i	4.7	3.9	0.8	-14.7	9.2
CC(C)(C)C(=O)N1CCN(c2ccc([N+](=O)[O-])cc2Cl)CC1	nt	nt	i	8.6	-6.6	-0.4	-9.2	nt
Cc1noc(C)c1COc1cccc(C(=O)Oc2ccc3c(c2)OCO3)c1	-11.2	nt	i	-6.3	-0.9	2.4	-6.6	2.9
CC(C)(C)c1ccc(NC(=O)COC(=O)C2CCCC2)cc1	nt	-2.1	nt	-6.0	-3.2	nt	-15.8	nt
COc1ccc(S(=O)(=O)NC(=O)C2(C)CCN2C(=O)Cc2cc(C)cc(C)c2)cc1OC (centres undefined)	nt	9.0	nt	0.5	0.0	nt	-8.3	nt
CCOc1cc(/C=N\NC(=O)Cn2nc([N+](=O)[O-])cc2C)ccc1OCc1cccc2ccccc12	1.7	-31.7	i	4.8	0.6	-10.0	-18.5	-0.7
COc1nc(-c2cccs2)cc(-c2ccc(C)cc2)c1C#N	-11.7	-16.6	i	-12.9	-4.2	48.6	-13.5	-2.6
O=C(CSc1nc2c(c(C(F)(F)F)n1)CCc1ccccc1-2)NCc1ccco1	3.8	nt	i	-9.3	-9.7	-14.9	-4.1	0.9
Cc1cccc(C)c1OCC(=O)Nc1cc(Cl)ccc1-n1cncn1	nt	nt	i	-1.6	-0.6	-3.8	nt	nt
Cc1cc(-c2nnc(CCC(=O)NC(C)c3ccc(F)cc3)o2)no1 (centres undefined)	0.0	32.9	i	-1.3	1.9	7.3	nt	2.3
CN1C(=O)[C@@H]2C[C@@]3([C@@]45C[C@H]6C(=O)N(C)[C@@H](Cc7ccccc7)C(=O)N6[C@@H]4Nc4ccccc45)c4ccccc4N[C@H]3N2C(=O)[C@@H]1Cc1ccccc1	nt	27.8	i	4.0	0.7	5.5	-3.8	nt
Cc1ccc(C(=O)NNC(=S)NCC2CCCO2)cc1[N+](=O)[O-] (centres undefined)	-8.1	2.1	i	-0.5	2.2	-20.0	-15.4	6.3
O=[N+]([O-])c1ccc(NCCCN2CCOCC2)c([N+](=O)[O-])c1	-2.6	20.6	i	-0.2	1.7	-23.4	nt	-6.9
COc1cccc(C(=O)N/N=C(/CCC(=O)O)c2ccccc2)c1	-13.4	7.2	i	2.5	3.6	-9.0	nt	-5.0
NNC(=O)c1sc2nc(N3CCOCC3)c3c(c2c1N)CCCC3	8.1	1.2	i	7.0	4.8	22.1	-20.0	7.3
CC(=O)N1CCN(S(=O)(=O)c2ccc3c(c2)CC(=O)N3)CC1	nt	-3.8	nt	-6.2	-1.9	4.2	nt	nt
CC1(c2nnc(-c3cccc(Cl)c3)o2)CC(c2ccccc2Br)=NO1 (centres undefined)	10.2	-4.0	i	-1.9	-0.7	34.2	0.6	2.3
CC(NC(=O)c1ccccc1O)c1ccccc1 (centres undefined)	-3.6	-7.1	i	-4.9	-1.4	-8.9	-13.8	-1.0
O=C(c1cccn2c(=O)c3cc(Cl)ccc3nc12)N1CCOCC1	-4.5	-6.5	i	8.7	-0.6	nt	-6.9	7.5
O=C(COC(=O)CCc1c[nH]c2ccccc12)NCc1ccc(Cl)cc1	-4.4	-1.9	i	4.8	3.1	-11.6	-0.2	-13.1
COc1cccc(-c2ccc3c(c2)C2CC3CCN2C(=O)c2ccc(-c3ccccc3)cc2)c1 (centres undefined)	nt	16.6	nt	-7.1	-5.3	nt	-6.2	nt
Cc1ccc(C(=O)N2CCC(C(N)=O)CC2)cc1C	-3.6	52.6	i	6.5	5.1	-22.4	-14.8	5.9
CCN(CC)CCNC(=O)Cn1ncc2ccccc2c1=O	-6.4	-6.4	i	0.5	2.8	-5.4	nt	-0.9
Cc1cc(F)cc(-c2cc(C(=O)NCc3ccccn3)[nH]n2)c1	nt	4.3	nt	-0.9	0.3	nt	-12.1	nt
CN(C)c1ccc(CN(C(=O)COc2ccc(F)cc2)C2CCS(=O)(=O)C2)cc1 (centres undefined)	-9.2	nt	i	2.2	-0.4	nt	nt	1.3
CCc1nc(CN2CCCC(C(=O)Nc3ccc(-c4cccc(OC)c4)cc3)C2)c(C)[nH]1 (centres undefined)	nt	13.3	nt	3.3	2.9	nt	-13.6	nt
CCc1ccccc1NC(=O)CN(C)S(=O)(=O)c1ccc(-c2ccc(=O)[nH]n2)s1	-11.5	-0.1	i	-2.9	2.1	-3.9	6.6	5.2
Cc1cc(NC(=O)CSCC(=O)NC(C)c2ccccc2)no1 (centres undefined)	nt	nt	nt	1.0	1.6	-19.8	-11.6	nt
O=C(O)c1ccc(COc2ccc(/C=N/NC(=O)c3cccs3)cc2)cc1	-0.7	nt	i	-2.9	0.4	-4.5	-8.1	58.2*
O=C(O)/C=C/c1cccc2c1OCCO2	-13.8	-9.3	i	1.4	3.1	-2.3	-17.1	-6.6
Nc1c(C(=O)OCC(=O)NCc2ccccc2)[nH]c(=O)[nH]c1=O	7.2	-5.5	i	1.5	3.8	2.3	-16.2	11.5
CC(=O)c1ccccc1NS(C)(=O)=O	15.5	-19.0	i	2.2	3.1	-11.5	14.2	1.7
O=C(c1ccc(S(=O)(=O)N2CCCCC2)cc1)N1CCN(CCN2C(=O)c3cccc4cccc(c34)C2=O)CC1	-6.7	-0.9	i	-2.7	-23.9	12.3	nt	10.5
COc1ccc(Cl)cc1NC(=O)c1ccco1	0.2	nt	i	2.7	0.3	-3.7	-7.8	13.3
C#CCNC(=O)C1=C[C@@H](c2ccc(C(F)(F)F)cc2)[C@H](CCCO)[C@@H](OCC)O1	12.2	-17.4	i	1.6	-7.3	-21.0	-14.6	7.9
CCCCN(C)c1c(C)nc2ccc(C(=O)NCCc3c[nH]c4ccccc34)cn12	nt	-4.5	nt	-0.4	-0.9	nt	-6.3	nt
O=C(Nc1ccc(Oc2ccccc2)cc1)c1ccc2nc([C@@H]3O[C@H](CO)[C@H](O)[C@H](O)[C@H]3O)[nH]c2c1	nt	3.3	nt	-2.5	3.3	nt	-21.7	nt
COc1ccccc1-c1nnc(SCC(=O)NC2CC2)n1C	nt	nt	nt	0.8	7.6	-4.8	-14.4	nt
Cc1ccc(NC(=O)COC(=O)CCC(=O)c2ccc(Cl)cc2)cc1S(=O)(=O)N(C)C	-4.9	-11.9	i	2.6	1.2	-14.9	nt	-4.9
O=C(OC(C(=O)NCc1ccco1)C(OC(=O)c1ccccc1)C(=O)NCc1ccco1)c1ccccc1 (centres undefined)	5.3	6.0	i	-2.8	-1.6	-3.2	nt	7.0
CCN(C(=O)c1cnc(OC)cc1C(F)(F)F)c1ccc(Cl)cc1	-18.1	-15.8	i	0.3	-3.4	9.4	1.0	3.8
O=C(CCCCCNC(=O)c1ccccc1)C[N+](=O)[O-]	-7.0	14.2	i	0.5	-0.1	13.1	nt	?

Looked up above.
MT1-MMP act inh RFP with `O=C(Nc1ccc(Oc2ccccc2)cc1)c1ccc2nc([C@@H]3O[C@H](CO)[C@H](O)[C@H](O)[C@H]3O)[nH]c2c1` reads 3.3
eIF4H FP inh with `COc1ccc(Cl)cc1NC(=O)c1ccco1` reads 0.2
Yeast UUG start with `Cc1cc(NC(=O)CSCC(=O)NC(C)c2ccccc2)no1` (centres undefined) reads -11.6
eIF4H FP inh with `O=C(CCCCCNC(=O)c1ccccc1)C[N+](=O)[O-]` reads -7.0

(next part)
SMILES	eIF4H FP inh	HIV Env fusion	Rce1 inhib	MT1-MMP act inh	MT1-MMP act inh RFP	CSC inhib	Yeast UUG start	PABP polyA inh
CC(NC(=O)Nc1ccc(F)cc1F)c1ccc2c(c1)OCO2 (centres undefined)	11.0	-9.9	i	0.1	-0.8	-3.9	-1.1	4.5
Cc1ccc(C)c(NC(=O)COC(=O)CCc2ccc(S(=O)(=O)N3CCOCC3)cc2)c1	-2.7	-2.6	i	1.6	0.1	-5.2	2.0	-9.4
Nn1nnc2ccccc21	-0.5	93.7*	i	0.0	4.2	-11.2	-17.2	6.5
COCOc1cc(O)c2c(=O)c(OCOC)c(-c3ccc(OCOC)c(OCOC)c3)oc2c1	nt	nt	i	2.1	-10.4	-0.3	17.3	nt

Entries of single compounds as entered above:
Shown for Cc1ccc(C)c(NC(=O)COC(=O)CCc2ccc(S(=O)(=O)N3CCOCC3)cc2)c1 : eIF4H FP inh = -2.7; HIV Env fusion = -2.6; Rce1 inhib = i; MT1-MMP act inh = 1.6; MT1-MMP act inh RFP = 0.1; CSC inhib = -5.2; Yeast UUG start = 2.0; PABP polyA inh = -9.4
Shown for Nn1nnc2ccccc21 : eIF4H FP inh = -0.5; HIV Env fusion = 93.7*; Rce1 inhib = i; MT1-MMP act inh = 0.0; MT1-MMP act inh RFP = 4.2; CSC inhib = -11.2; Yeast UUG start = -17.2; PABP polyA inh = 6.5
